Screens deposited in PubChem BioAssay by ICCB-Longwood Screening Facility, Harvard Medical School.
PV pol inh: poliovirus RNA polymerase inhibition | P03300 | poliovirus polymerase elongation, fluorescence polarization; stronger effect = lower value | % elongation, % (compound at 16.7 µg/mL) | hit rate 0.66% among 150,000 | AID 588519; in the data active means % elongation below about 90%; further: some results filed as inactive read as strong as hits
Target sequence (P03300 1749-2209 limits assumed): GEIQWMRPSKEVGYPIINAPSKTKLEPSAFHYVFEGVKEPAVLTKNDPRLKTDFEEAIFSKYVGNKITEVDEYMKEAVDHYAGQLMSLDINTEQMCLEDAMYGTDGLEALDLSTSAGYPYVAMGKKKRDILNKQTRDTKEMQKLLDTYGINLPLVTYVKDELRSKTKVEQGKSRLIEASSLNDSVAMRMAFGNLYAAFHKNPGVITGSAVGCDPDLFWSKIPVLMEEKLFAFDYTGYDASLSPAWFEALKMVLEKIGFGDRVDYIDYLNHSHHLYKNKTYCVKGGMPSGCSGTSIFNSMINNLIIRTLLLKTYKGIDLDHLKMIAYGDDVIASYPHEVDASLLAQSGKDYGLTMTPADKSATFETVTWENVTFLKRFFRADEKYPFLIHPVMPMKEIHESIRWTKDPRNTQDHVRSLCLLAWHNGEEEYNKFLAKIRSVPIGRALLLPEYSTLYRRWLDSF
Mtb MenB inh: blocks the Mycobacterium tuberculosis MenB enzyme. P9WNP5. MenB enzyme assay, absorbance read-out; some hits fall short of the stated cut. inhibition, %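 (about 12 µg/mL by stock and volumes)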. hit rate 0.43% among 100,000;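 active means mean of two replicates above 30%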;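 further: 0% = no compound and 100% = wells with inactive enzyme; the first replicate is given; strong numbers were not always called active; inactives centre near -10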
Target sequence (P9WNP5 whole entry, looked up): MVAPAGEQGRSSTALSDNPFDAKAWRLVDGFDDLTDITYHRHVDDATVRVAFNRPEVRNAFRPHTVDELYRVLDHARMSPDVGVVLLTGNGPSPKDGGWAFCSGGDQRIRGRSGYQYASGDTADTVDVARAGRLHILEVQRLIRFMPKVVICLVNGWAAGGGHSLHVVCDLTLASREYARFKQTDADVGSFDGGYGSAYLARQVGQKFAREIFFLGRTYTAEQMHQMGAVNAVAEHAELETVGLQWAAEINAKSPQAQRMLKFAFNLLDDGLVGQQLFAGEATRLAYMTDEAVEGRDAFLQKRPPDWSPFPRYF
Mtb MbtI inh: blocks the Mycobacterium tuberculosis siderophore enzyme MbtI; inhibition, %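 (about 17 µg/mL by stock and volumes)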; purified MbtI enzyme, fluorescence intensity read-out; hit rate 0.89% among 100,000; AID 493033;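 active means above 50% in both replicates, above 80% if mildly self-fluorescent; inactive means the rest, strongly fluorescent compounds included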;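 further: 0% = mean of negative and 100% = mean of positive controls; one replicate is shown; some compounds called inactive have numbers as strong as hits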
PV pol inh intensity: also measured in PV pol inh; calls as there; % elongation; measured here: total intensity read-out; formula for this scale not given here;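 total fluorescence in place of polarization; lower means less elongation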
* = called active by the depositor; i = inactive; . = no result given.

A first look:
Order of results – PV pol inh | PV pol inh intensity | Mtb MenB inh | Mtb MbtI inh
> Cc1cc(/C=N/n2cnnc2)c(C)n1-c1ccc(C(=O)O)cc1
    103 | 100 | -17 | .
> O=C(CN1CCOCC1)N(c1ccccc1)c1ccc2ccccc2c1
    102 | 102 | 32 | -3
> N#Cc1cccc(NC(=O)CNc2ccc3ccccc3c2)c1
    101 | 110 | -15 | 100
> CC1=NNC(=O)C1CC(=O)N/N=C/c1sccc1C (stereo not given)
    99 | 101 | 15 | 0

The listing (from the top)
Order of results – PV pol inh | PV pol inh intensity | Mtb MenB inh | Mtb MbtI inh
> Cc1cc(/C=N/n2cnnc2)c(C)n1-c1ccc(C(=O)O)cc1
    103 | 100 | -17 | .
> O=C(CN1CCOCC1)N(c1ccccc1)c1ccc2ccccc2c1
    102 | 102 | 32 | -3
> N#Cc1cccc(NC(=O)CNc2ccc3ccccc3c2)c1
    101 | 110 | -15 | 100
> CC1=NNC(=O)C1CC(=O)N/N=C/c1sccc1C (stereo not given)
    99 | 101 | 15 | 0
> Cc1cc(C)n(CCCNC(=O)c2ccc(S(=O)(=O)NCc3ccco3)cc2)n1
    103 | 103 | -20 | -4
> COc1ccccc1CC(=O)N1CCN(S(=O)(=O)c2ccccc2C(F)(F)F)CC1
    100 | 104 | -8 | 6
> Cc1ccccc1OCc1nnc(SCC(N)=O)n1C
    102 | 104 | -13 | .
> CC12CCC(C(=O)N3NC(=O)[C@@H](c4ccccc4)[C@@H]3c3ccccc3)(OC1=O)C2(C)C (stereo not given in full)
    105 | 97 | -33 | 5
> Cc1nn(-c2ccccc2)c(=O)c2ccccc12
    98 | 113 | 16 | 5
> C[C@H]1c2ccoc2CC2[C@H]1CCC1[C@@](C)(CC(=O)O)CCC[C@]21C (stereo not given in full)
    99 | 102 | -11 | .
> CC(C)CNc1nc(-c2ccccc2)cs1
    102 | 103 | -50 | 91*
> Oc1[nH]c2ccccc2c1N=NC1=NCCC1
    101 | 107 | -148 | 2
> O=C(c1cccc(N2CCCS2(=O)=O)c1)N1CCN(c2ccccc2)CC1
    102 | 102 | -7 | -31
> CS(=O)(=O)N(Cc1ccccc1Cl)c1ccc(C(=O)Nc2ccc3c(c2)OCO3)cc1
    102 | 105 | -21 | 5
> CC1CCCCN1CCCNC(=O)Nc1ccc(Cl)cc1 (stereo not given)
    106 | 98 | -10 | -10
> c1ccc(N2CCN(Cc3cn4ccccc4n3)CC2)nc1
    106 | 110 | -7 | .
> O=C1Nc2ccc(S(=O)(=O)N3CCCC3C(=O)O)c3cccc1c23 (stereo not given)
    98 | 99 | -24 | -12
> O=C(NC1=NCCS1)c1cc2nc(Nc3ccccc3)sc2s1
    105 | 125 | -33 | 129
> CCC12CN3CC(CC)(CN(C1)C(=O)c1ccccc1C3=O)C2=O
    101 | 100 | -4 | 4
> CCN(CC)C(=O)C1=C(C)N=C2SC(C#N)=C(N)N2C1c1ccc(Cl)cc1 (stereo not given)
    104 | 100 | 1 | 8
> Cc1ccc(S(=O)(=O)N2CCCCC2C(=O)NC(C)c2ccc3c(c2)OCCO3)cc1 (stereo not given)
    101 | 105 | -28 | -13
> O=C(Cc1cccs1)Nc1c[nH]c(=O)[nH]c1=O
    101 | 105 | -22 | -16
> Cc1cc2occ(CC(=O)O)c2cc1C(C)C
    100 | 100 | -1 | -5
> O/N=C/c1nc(-c2ccc(Cl)cc2)n2ccccc12
    99 | 108 | -8 | -5
> CCOC(=O)C1CCN(c2ncnc3c2oc2ccccc23)CC1
    102 | 102 | 22 | 9
> CC(=O)Nc1ccc(NC(=O)COc2ccc(C)c(C)c2)cc1
    100 | 105 | -35 | -10
> CCn1cc(C2CC(=O)N(c3ccccc3)C2=O)c2ccccc21 (stereo not given)
    99 | 102 | 11 | -8
> CCOc1cc(=O)oc2ccc(Cl)cc12
    108 | 107 | -5 | .
> Cc1ccccc1NC(=O)c1sc(N)c(C(N)=O)c1C
    97 | 97 | -19 | 87*
> O=C(O)c1cc2c(cc1NC(=O)C13CC4CC(CC(C4)C1)C3)OCCCO2
    101 | 96 | -31 | -6

Whole records, looked up by structure.
CCC12CN3CC(CC)(CN(C1)C(=O)c1ccccc1C3=O)C2=O across the screens: PV pol inh = 101; PV pol inh intensity = 100; Mtb MenB inh = -4; Mtb MbtI inh = 4
CCn1cc(C2CC(=O)N(c3ccccc3)C2=O)c2ccccc21 (stereo not given) across the screens: PV pol inh = 99; PV pol inh intensity = 102; Mtb MenB inh = 11; Mtb MbtI inh = -8

Carrying on.
Order of results – PV pol inh | PV pol inh intensity | Mtb MenB inh | Mtb MbtI inh
> CCOC(=O)Cc1cc(=O)[nH]c(/N=C(\N)Nc2ccc3ccccc3c2)n1
    102 | 102 | 0 | -4
> Cc1cc(NC(=O)c2cccs2)n(-c2ccccc2)n1
    102 | 106 | . | -2
> COc1ccc(C2C(C#N)=C(O)NC(=O)C2[n+]2ccccc2)cc1OC (stereo not given)
    103 | 97 | 4 | .
> O=C(c1ccccc1Oc1ccccc1)N1CCN(c2ccccc2)CC1
    99 | 99 | -26 | 8
> COc1ccc2c(c1)c(=O)oc1cc(OC(C)C(=O)O)ccc12 (stereo not given)
    100 | 101 | -29 | i
> COCCN1C2=C(C(=O)CC(C)(C)C2)C(c2cc(Br)c(O)c(OC)c2)C2=C1CC(C)(C)CC2=O
    104 | 103 | -14 | 1
> O=C1CCCN2N=C(SCc3ccc(C(F)(F)F)cc3)SC2=N1
    100 | 102 | 6 | 9
> CC(C)(C)c1nc(NCc2cccs2)c2nnn(Cc3ccccc3Cl)c2n1
    101 | 100 | -31 | -9
> O=C(CSc1ncnc2sc3c(c12)CCCC3)OC1CCCCC1
    101 | 105 | 4 | .
> COc1ccc(C2CC(c3ccc(Br)cc3)=NN2C(=O)CSc2nnc3[nH]c(=O)cc(C)n23)cc1 (stereo not given)
    102 | 99 | -13 | 4
> O=C1CS/C(=N/c2nc(-c3ccccc3)cs2)N1
    99 | 102 | -4 | 3
> Cc1ccn(C(=O)c2ccc(NC(=O)C3CCCCC3)cc2)n1
    102 | 102 | 14 | 15
> CCC(c1nnnn1CCOC)N(Cc1cc2ccc(OC)cc2[nH]c1=O)C1CCCC1 (stereo not given)
    100 | 102 | 8 | 1
> N#Cc1cc2c(=O)n3ccccc3nc2n(-c2nccs2)c1=O
    106 | 104 | -17 | 15
> CCOc1ccccc1C1C(C(=O)OC)=CN(CC23CC4CC(CC(C4)C2)C3)C=C1C(=O)OC
    101 | 93 | -8 | .
> CC(=O)Oc1cc(C)ccc1C(C)C
    106 | 111 | -6 | -3
> NNc1nnc(Cl)c2ccccc12
    101 | 103 | -33 | 33
> O=C(c1ccco1)N1CCN(CC(O)COC(c2ccc(Cl)cc2)c2ccc(Cl)cc2)CC1 (stereo not given)
    99 | 101 | -7 | -7
> CSc1nc(N)nc(-c2cccs2)c1C#N
    99 | 97 | -3 | -36
> Cc1nn(-c2ccccc2)c2c1C(c1ccccc1)C(NC(=O)c1ccccc1)C(=O)N2 (stereo not given)
    101 | 95 | -8 | 7
> COc1ccccc1NC(=O)C1CCN(c2nn3cc(-c4ccc(C)cc4)nc3s2)CC1
    104 | 109 | -18 | -10
> N/C(=N/O)c1ccccc1
    102 | 104 | . | -1
> CCCNc1ccc(F)cc1
    102 | 100 | -28 | 13
> Fc1ccc(CSc2nc3ccccc3o2)cc1
    103 | 104 | . | -5
> CC(C)(C)NC(=O)Nc1cc(C(F)(F)F)cc(C(F)(F)F)c1
    106 | 108 | -9 | 0
> COc1ccc(/C=C2\SC(=S)N(/N=C/c3ccc(OC)cc3)C2=O)cc1
    101 | 100 | -27 | -5
> Cc1cccc(-c2nc3ccccc3c(=O)o2)c1
    103 | 104 | -16 | 1
> O=C(CSCc1ccc(Cl)c(Cl)c1)Nc1c[nH]c(=O)[nH]c1=O
    107 | 107 | -12 | .
> O=C(c1ccco1)N1CC2(c3ccccc3)CN(C(=O)c3ccco3)CC(c3ccccc3)(C1)C2=O
    100 | 103 | 18 | -6
> COc1cc(OCc2ccccc2)ccc1CN1CCN(c2ccc(C(F)(F)F)cn2)CC1
    105 | 103 | -11 | -5
> NC(=O)CC1SC(N)=NC1=O (stereo not given)
    101 | 98 | -16 | 10
> N#CC1=C(N)Oc2c(sc3ccccc23)C1c1ccccc1 (stereo not given)
    103 | 106 | . | -4
> O=C(Cn1ncc2c([nH]c3ccccc32)c1=O)Nc1ccc(Cl)cn1
    102 | 105 | -12 | -3
> Cc1noc(C)c1CSc1nc2ccccc2c(=O)n1CC1CCCO1 (stereo not given)
    100 | 103 | 2 | 17
> O=C(CC1CCCC1)OCCN1CCCC1=O
    101 | 100 | . | -4
> CC(C)Cc1nnc(NC(=O)c2ccccc2)s1
    102 | 101 | -18 | -4
> N#Cc1ccc(NC(=O)CC2(CC(=O)O)CCCCC2)cc1
    99 | 104 | -4 | 8
> CCCCn1nnnc1COC(=O)c1ccc(OCC(=O)N2CCOCC2)c(OC)c1
    108 | 108 | -11 | 4
> O=C(COc1ccc(Cl)cc1)NCc1ccc2[nH]c3c(c2c1)CCCC3
    103 | 103 | -1 | -7
> CCOC(=O)c1ccoc1CN1c2cccc3cccc(c23)S1(=O)=O
    95 | 88 | -27 | 27
> NC(=O)Cn1cnc2sc3c(c2c1=O)CCCC3
    102 | 104 | 2 | -2
> COc1ccc(CCn2c(C)cc(C(=O)CSc3nnc(-c4cccnc4)n3C3CC3)c2C)cc1
    105 | 111 | -14 | -2
> C[C@H](NC(=O)c1ccco1)C(=O)Nc1cccc(-c2nnc3n2CCCCC3)c1
    104 | 106 | -6 | -11
> CC1=CC=CC2C(=O)/C(=C\c3sc(=S)[nH]c3O)C(=NCCCn3ccnc3)N=C12 (stereo not given)
    . | . | -69 | 9
> CCC(C)OC(=O)COc1ccc2c(=O)c(Oc3cc(C)ccc3C)coc2c1 (stereo not given)
    102 | 99 | -14 | -2
> CC1CC(C)CN(C(=O)c2cc3ccc4cccnc4c3[nH]2)C1 (stereo not given)
    105 | 100 | -30 | -31
> CN(Cc1csc(Nc2ccccc2)n1)Cc1cccs1
    101 | 106 | -12 | 2
> O=C(O)CNC(=O)c1sc2ccccc2c1Cl
    100 | 102 | 5 | -18
> CCCN(CCC)C(=O)Cn1c(=O)n(CCC(=O)NCCc2ccccc2)c(=O)c2ccccc21
    100 | 100 | 8 | 2
> O=C(COc1cccc(Br)c1)NCC1CCCO1 (stereo not given)
    105 | 109 | . | -12
> COc1ccc(NC(=O)n2ncc3c(C)cccc32)cc1
    101 | 104 | 4 | -3
> O=C(NCc1ccncc1)C1CC(=O)N(c2ccc(Cl)cc2)C1 (stereo not given)
    104 | 102 | -5 | -6
> CCN(CC)S(=O)(=O)c1ccc2c(c1)nc(CCC(=O)Oc1ccc3c(c1)OCO3)n2CC
    103 | 108 | -16 | -18
> S=c1sc2c(s1)SC1C(CC3C4C=CC(C4)C31)S2 (stereo not given)
    100 | 101 | -13 | 23
> Cc1cc(=O)[nH]c(SCc2nc(-c3cccs3)no2)n1
    98 | 90 | 10 | 20
> N#Cc1c(/N=C/c2ccc(O)cc2O)sc2c1C1CCN2CC1
    120 | 138 | -6 | 9
> Cn1cc(C2CC(=O)N(c3ccc(O)cc3)C2=O)c2ccccc21 (stereo not given)
    102 | 108 | 1 | -6
> COc1cccc(/C=N/n2c(-c3ccco3)nc3ccccc3c2=O)c1
    103 | 100 | -29 | -9
> CCOC(=O)c1cnc2ccccc2c1NCCCO
    101 | 104 | 17 | 3
> CC(=O)NCc1ccc(C(=O)Cn2nc(C(=O)O)c3ccccc3c2=O)o1
    105 | 109 | -11 | -8

Reprinted at random: seven compounds from above
Order of results – PV pol inh | PV pol inh intensity | Mtb MenB inh | Mtb MbtI inh
> O=C(COc1cccc(Br)c1)NCC1CCCO1 (stereo not given)
    105 | 109 | . | -12
> COc1ccc(NC(=O)n2ncc3c(C)cccc32)cc1
    101 | 104 | 4 | -3
> Cn1cc(C2CC(=O)N(c3ccc(O)cc3)C2=O)c2ccccc21 (stereo not given)
    102 | 108 | 1 | -6
> N#Cc1c(/N=C/c2ccc(O)cc2O)sc2c1C1CCN2CC1
    120 | 138 | -6 | 9
> S=c1sc2c(s1)SC1C(CC3C4C=CC(C4)C31)S2 (stereo not given)
    100 | 101 | -13 | 23
> CC(=O)NCc1ccc(C(=O)Cn2nc(C(=O)O)c3ccccc3c2=O)o1
    105 | 109 | -11 | -8
> COc1cccc(/C=N/n2c(-c3ccco3)nc3ccccc3c2=O)c1
    103 | 100 | -29 | -9

Next section
Order of results – PV pol inh | PV pol inh intensity | Mtb MenB inh | Mtb MbtI inh
> Cc1ccccc1-c1nnn(CC(=O)N2c3ccccc3NC(=O)C2(C)C)n1
    102 | 104 | -3 | 10
> S=c1[nH]nc(-c2sc3ccccc3c2Cl)n1CCN1CCOCC1
    97 | 101 | -16 | 37
> O=C(N1CCN(Cc2ccc3c(c2)OCO3)CC1)N1c2ccccc2Sc2ccccc21
    101 | 102 | -1 | 14
> O=C(OCCOc1ccc(Cl)cc1)c1ccc(O)cc1O
    104 | 112 | -19 | -2
> O=C(c1ccc(Cl)cc1)n1nc(-c2cccnc2)nc1NCc1ccco1
    104 | 98 | -32 | -6
> CN1CCN(C(=O)c2ccccc2C(=O)O)CC1
    101 | 103 | -8 | 7
> CC(C)NC(=O)c1ccc(N2CCCC2=O)cc1
    104 | 98 | -9 | 8
> CCCCSc1ncnc2sccc12
    106 | 107 | -24 | 1
> O=c1oc2c3c(ccc2c2c1CCCC2)OCN(CCc1ccccc1)C3
    102 | 104 | -2 | 114
